# Source: PubChem (National Center for Advancing Translational Sciences (NCATS))
# Sfp PPTase inh = qHTS Assay for Inhibitors of Bacillus subtilis Sfp phosphopantetheinyl transferase (PPTase) | 4'-phosphopantetheinyl transferase ffp (Bacillus subtilis), Q9F4F7 | Biochemical Sfp PPTase activity, qHTS | 3.5% of 310,000 active | AID 1490, 2009 | Potency, µM, without a hit: max response, negative = inhibition, hits mostly inhibitors; active = well fitted inhibition curve with a large enough effect; inconclusive = small, poorly fitted or top-dose-only effect, or another doubt; inactive = no such curve, though single readings can be large or run the other way;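 also: the enzyme is Sfp with the accession as filed and its product quenches rhodamine fluorescence; potency is read from the fitted curve at half-maximal effect; 0% = enzyme reaction without inhibitor and -100% = no enzyme wells; top concentration of the series not given in the record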
#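 Sfp 15 nM + cpd, 15 min RT; start w/ rhodamine-CoA 5 uM, BHQ-2-YbbR 12.5 uM (final); 50 mM Hepes pH 7.6, 10 mM MgCl2, 0.01% NP-40, 0.01% BSA; read 525/598 nm at 0 and 30 min.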
# gsp antagonist = qHTS for Antagonists of gsp, the Etiologic Mutation Responsible for Fibrous Dysplasia/McCune-Albright Syndrome: qHTS | gsp-mutant cells, cAMP HTRF, 30 min; control for the full effect not named in the record | Potency, µM (top dose mostly 76.9 µM), without a hit: at the highest dose activity change, negative = inhibition, hits mostly inhibitors | 0.4% of 340,000 active | AID 624288, 2012; active = falling curve of any shape with a large fitted effect; inconclusive = falling curve, mostly with a smaller effect; inactive = flat or rising curve; cell line not stated here;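 also: intracellular cAMP measured with PDE inhibitor Ro 20-1724 present during compound exposure; potency is read from the fitted curve at half-maximal effect; % is scaled to controls: 0 for no effect and ±100 for the full control effect; nearly all actives have a fitted effect of over 65% in size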
#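 Measurement of cellular cAMP by homogeneous time-resolved fluorescence following a 30 min compound exposure at 37C. The PDE inhibitor […] was present throughout; the assay buffer was DPBS with 0.05% BSA and 0.005% Tween 20.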
# ClpP mod = qHTS Assay for Activators of ClpP | purified B. subtilis ClpP, FRET peptide cleavage, 20 min | 1.9% of 340,000 active | Potency, µM (titrated, usually from 57.5 µM), without a hit: at the top dose activity change, negative = active; active = well fitted falling curve with a large enough effect; inconclusive = small, poorly fitted or top-dose-only effect; inactive = no such curve, though single readings can be large or run the other way; also: potency is read from the fitted curve at half-maximal effect; the source files actives as falling curves though it sought activators and does not explain the sign; nearly all actives have a fitted effect of over 65% in size; many hits overshoot -100%
# Target sequence (P80244 whole entry, looked up): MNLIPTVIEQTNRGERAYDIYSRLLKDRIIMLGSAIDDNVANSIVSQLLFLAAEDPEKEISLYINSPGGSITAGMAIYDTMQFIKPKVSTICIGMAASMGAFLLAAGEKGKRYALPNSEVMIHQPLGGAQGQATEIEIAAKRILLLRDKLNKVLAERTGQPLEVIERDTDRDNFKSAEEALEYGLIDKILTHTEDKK
#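 ClpP 10 microg/mL final, pH 8 Tris/KCl buffer with BSA, glycerol, Tween-20; compound pinned in; FRET-FV substrate; RT 20 min; Ex320/Em430; ΔFRET vs ADEP 5.8 microM, DMSO, no enzyme.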
# PINK1 modulator = A Quantitative High throughput Screen to Identify Chemical Modulators of PINK1 Expression; Potency, µM (titrated, usually from 76.6 µM), without a hit: at the highest dose activation (PINK1 increase), most hits filed as activators; PINK1 immunofluorescence, high-content cytometry, 24 h; AID 624263, 2012; 0.2% of 410,000 active; active = well fitted activation curve with a large enough effect; inconclusive = small, poorly fitted or top-dose-only effect; inactive = flat fitted curve, though single readings scatter; cell line not stated here;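 also: potency is read from the fitted curve at half-maximal effect; % of control where 0% means no effect; nearly all actives have a fitted effect of over 65% in size; a mitochondrial uncoupler was the plate control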
#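 Decision-based qHTS: stable cells, 24 h exposure to five compound concentrations, CCCP as control. Fixed cells stained for PINK1 plus nuclear, mitochondrial and cell markers, cytometer read.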
# Menin MLL FP FL = qHTS Assay for Inhibitors Targeting the Menin-MLL Interaction in MLL Related Leukemias: Competition With Fluorescein Labeled MLL-derived Peptide; 290,000 tested, under 10 active; Fluorescence polarization, fluorescein-MLL peptide displacement from menin; FP activity change, % at 61.4 µM; inconclusive = falling polarisation curve, or a change in total fluorescence; inactive = total fluorescence flat and polarisation flat or rising; no compound was filed as active; the % refers to the polarisation; negative = inhibition;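 also: % of control where 0% means no effect; inhibitors lower the polarisation; unlabelled MLL peptide was the positive control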
# D2 agonist = Beta-Arrestin HTS for Positive Allosteric Modulators of the Human D2 Dopamine Receptor: Agonists; D(2) dopamine receptor (Homo sapiens), P14416; DiscoveRx PathHunter D2 beta-arrestin, luminescence, 90 min; 100% = 57 uM dopamine signal; activation, % (concentration not given with the values); 0.084% of 360,000 active; AID 624465, 2012; in the data active = activation above about 40%; inconclusive = about 15% to 40%; inactive = below about 15%; also: compound concentration not given in the record; the text of the record calls up to 30% inactive
# Target sequence (P14416 whole entry, looked up): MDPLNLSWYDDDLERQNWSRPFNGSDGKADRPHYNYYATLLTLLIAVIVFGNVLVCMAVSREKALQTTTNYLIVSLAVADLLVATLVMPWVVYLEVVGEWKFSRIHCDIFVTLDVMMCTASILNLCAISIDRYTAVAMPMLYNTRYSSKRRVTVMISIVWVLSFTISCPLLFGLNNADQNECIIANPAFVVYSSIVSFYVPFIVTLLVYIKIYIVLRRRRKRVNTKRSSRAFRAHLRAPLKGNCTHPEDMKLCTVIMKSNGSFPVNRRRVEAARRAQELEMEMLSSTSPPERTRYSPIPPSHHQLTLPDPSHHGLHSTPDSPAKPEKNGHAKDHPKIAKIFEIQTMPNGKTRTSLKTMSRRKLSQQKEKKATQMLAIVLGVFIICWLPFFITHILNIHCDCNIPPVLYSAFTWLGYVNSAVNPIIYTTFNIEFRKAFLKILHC
#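 DiscoveRx PathHunter D2 beta-arrestin cells (2,100/well) attached overnight, then compound-stimulated 90 min at 37 C in HBSS/10 mM HEPES/0.1% Tween-20 buffer; beta-galactosidase complementation read by luminescence after 1 h at ambient temperature. Dopamine 57 uM final (EC100) as control.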
# gsp agonist = qHTS for Agonist of gsp, the Etiologic Mutation Responsible for Fibrous Dysplasia/McCune-Albright Syndrome: qHTS. gsp mutant cells, cAMP HTRF, 30 min; control for the full effect not named in the record. Potency, µM (series often up to 76.9 µM), for the others: at the highest dose activation (cAMP increase), most hits filed as activators. 0.13% of 340,000 active. AID 624287, 2012; active = well fitted activation curve with a large enough effect; inconclusive = small, poorly fitted or top-dose-only effect, or another doubt; inactive = no such curve, though single readings can be large or run the other way; cell line not stated here;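 also: phosphodiesterase inhibitor Ro 20-1724 added with compounds to block cAMP breakdown; potency is read from the fitted curve at half-maximal effect; nearly all actives have a fitted effect of over 60% in size; about a fifth of the inactives were tested at one dose only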
#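 Cells in DMEM/10% FBS with G418 were pretreated with compounds in DMSO plus […] (300 uM stock) for 30 min at 37C. cAMP was measured by HTRF (cAMP-d2 plus anti-cAMP antibody-K) after 30 min at room temperature.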
# Active calls of the source: *; ? = inconclusive; nt = not tested or not shown; [ ] = another dose, or the depositor's remark.
SMILES,Sfp PPTase inh,gsp antagonist,ClpP mod,PINK1 modulator,Menin MLL FP FL,D2 agonist,gsp agonist
CC(=O)Nc1ccc2nc(C3CC3)n(Cc3ccc(Cl)cc3)c(=O)c2c1,7%,?,-8.6%,1.2%,2.1,-1.8,?
CCOC(=O)c1[nH]c2ccccc2c1NC(=O)CC(C)C,15%,-11%,-2.3%,-0.1%,3.6,-0.4,-34%[inhibitor]
Cc1cc(CN(C)C(=O)C2CCC(=O)N(CCc3cccc(F)c3)C2)on1 (stereo unspecified),8%,7%,0.0%,3.4%,-1.0,0.3,1%[15.4 µM]
COC(=O)C1(c2ccccc2)NC(c2cccs2)C2C(=O)N(c3ccccc3)C(=O)C21 (stereo unspecified),nt,1%,1.4%,1.6%,nt,-1.6,-34%[inhibitor]
Cc1nn(C)c(C)c1CNC(=O)Nc1ccc2c(c1)OCO2,9%,0%,-4.8%,-0.3%,-1.8,-2.0,-4%[15.4 µM]
O=C(NCCCn1ccnc1)c1ccc(C(F)(F)F)cc1,10%,10%,-1.6%,-0.3%,0.3,-2.0,25%
CCC(C(=O)N1CCN(C(=O)c2ccco2)CC1)n1sc2ccccc2c1=O (stereo unspecified),11%,-3%,1.2%,1.1%,2.0,-5.1,?
O=C(N/N=C/c1cccs1)C(=O)N1CCCC1,15%,-1%,nt,-1.2%,-1.6,0.4,8%[15.4 µM]
COc1ccc(C(=O)N2CCC(n3nccc3NC(=O)C3CCOC3)CC2)cc1 (stereo unspecified),15%,11%,0.7%,1.7%,3.6,-3.4,-1%
CCOC(=O)C1(C)CCN1C(=O)c1cncc(Br)c1 (stereo unspecified),nt,nt,0.1%,-0.4%,nt,-3.2,nt
Nc1nnc(-c2ccc(Cl)cc2)s1,0%,8%,?,nt,-1.2,0.1,-21%
COc1ccccc1Nc1nc(-c2ccc3c(c2)NC(=O)CO3)cs1,-13%,-15%,1.3%,3.7%,3.3,2.2,-30%
C1CNC(C23CC4CC(CC(C4)C2)C3)=N1,1%,7%,nt,-0.6%,-1.2,0.5,8%
O=C(CSc1ccncc1)Nc1ccc(S(=O)(=O)Nc2nccs2)cc1,-3%,10%,-1.7%,-0.5%,-0.2,-3.1,27%
O=C(CCNC(=O)c1ccc(Cl)cc1)Nc1c(F)c(F)cc(F)c1F,8%,7%,-0.9%,3.9%,1.2,-2.5,11%
O=S(=O)(Nc1nc2ccccc2nc1-[n+]1cccc(N=C([O-])c2ccc(Cl)cc2)c1)c1ccccc1,4%,-13%,nt,0.8%,?,-2.0,-4%
O=C1NC(Cc2c[nH]c3ccccc23)C(=O)N1CCOc1ccccc1 (stereo unspecified),6%,-1%,2.8%,-0.9%,-1.3,-3.3,-6%
Cc1cc(-c2nnc(CCC(=O)N(C)Cc3cccc4ccccc34)o2)no1,15%,16%,nt,-1.4%,1.9,-0.3,0%
O=C(O)c1cc([N+](=O)[O-])c(N2CCCC2)c([N+](=O)[O-])c1,1%,-1%,0.8%,0.4%,-1.0,-1.2,18%
CC1(C)Cc2c(sc(N)c2C#N)C(C)(C)N1,18µM*,-11%,2.0%,-0.4%,-0.4,0.9,-5%
COc1ccc(-c2cc(NC(C)=O)c3ncc(-c4ccccc4)n3c2)cc1OC,nt,nt,-2.8%,6.6%,nt,?,nt
O=C(CNC(=O)c1ccccc1F)N/N=C/c1cc(Br)ccc1OC(=O)/C=C/c1ccco1,-6%,-23%,nt,1.0%,13,-0.4,-32%[inhibitor]
Cc1noc(C)c1-c1ccc(C(=O)NCc2ccco2)c2occc12,nt,nt,-17%,13%,nt,-3.6,nt
CCc1nnc(N/N=C/c2ccccc2Cl)n1N,-24%,9%,77%,nt,2.6,6.7,-19%
CC(/C=N/NC(=O)c1ccncc1)=C\c1ccccc1,-8%,-7%,-1.5%,nt,-0.1,-0.9,-12%
Cc1ccc(NC(=O)CN2CCN(C(=O)c3ccco3)CC2)cc1,24%,2%,nt,-0.2%,-0.9,-1.5,4%
CCOC(=O)c1cnc2c(c(C3CC3)nn2C)c1N1CCOCC1,11%,-6%,0.9%,-0.4%,-0.5,-0.3,-17%[15.4 µM]
O=C(COC(=O)[C@H](Cc1ccccc1)NC(=O)c1cccs1)Nc1ccccc1C(F)(F)F,13%,-5%,-0.9%,0.1%,1.3,-1.4,3%
CC(C)[C@H]1c2ccc(F)cc2CC[C@@]1(CCN(C)CCCc1nc2ccccc2[nH]1)OC(=O)C1CC1,45µM*,nt,3.0%,-1.0%,-2.1,nt,nt
CCOC(=O)C(=O)N(Nc1ccc(C)cc1)c1ccc(C)cc1,11%,-9%,nt,1.5%,2.2,-6.9,?
COP(=O)(OC)c1nc(-c2ccccc2)oc1N1CCOCC1,13%,18%,0.6%,0.2%,4.6,-0.6,-4%[15.4 µM]
Cc1nc2nc(CC(=O)O)[nH]n2c(=O)c1[N+](=O)[O-],-19%,18%,-0.7%,2.9%,0.0,-4.8,22%
Cc1ccc(N2C(=O)Nc3ccccc3C2(O)C(=O)NCCCOC(C)C)cc1C (stereo unspecified),14%,14%,nt,3.9%,2.9,4.2,-1%
CCCNC(=O)COc1coc(CN2CCN(c3ccccc3)CC2)cc1=O,20%,1%,-1.8%,-0.5%,nt,4.1,-4%
Nc1cc(N)nc(SCCOc2ccccc2F)n1,-5%,0%,1.2%,-2.2%,1.1,-0.9,-3%
Cc1cc(C)c2c(CC(=O)Nc3nccs3)coc2c1,14%,3%,-0.9%,2.0%,0.4,-2.8,1%
CCOc1cc2[nH]c(=S)n(Cc3ccc(C(=O)NCCN(CC)CC)cc3)c(=O)c2cc1OCC,-7%,-1%,nt,-3.5%,11,-0.9,-18%[15.4 µM]
CN(C)S(=O)(=O)c1cccc(-c2nn(-c3ccccc3)cc2/C=C2\SC(=S)NC2=O)c1,?,?,2.1%,?,?,-4.9,-49%[inhibitor]
O=C(O)c1ccc(Cl)c(S(=O)(=O)Nc2ccc3cn[nH]c3c2)c1,?,9%,nt,-0.8%,11,-4.0,11%[15.4 µM]
CCc1nc(Cl)c(C#N)c2c1CCCC2,8%,1%,nt,-0.6%,-0.3,-2.6,1%
CC1=C(C(=O)OCC2CCCO2)C(c2ccsc2)C2=C(CCCC2=O)N1 (stereo unspecified),17%,nt,nt,-1.6%,-2.6,1.7,-18%[15.4 µM]
C=CCN1C(=O)CSC1=Nc1ccc(NC(C)=O)cc1,12%,8%,-1.1%,-0.4%,nt,-5.5,2%
Cc1oc(-c2cccs2)nc1CN1CCC(CO)(CCOc2ccccc2)CC1,13%,14%,nt,2.0%,-2.0,-3.8,?
Cc1cc(C)cc(NC(=O)Cc2ccc(-n3cccc3)cc2)c1,4%,29%,0.6%,?,-0.8,-4.9,14%
O=C(CN(C(=O)c1csnn1)c1cccc2c1CCCC2)NCc1ccc(F)cc1,18%,3%,0.0%,5.4%,-0.4,-7.0,-8%[15.4 µM]
O=C(CNc1ccc(Cl)c(C(F)(F)F)c1)N1CCN(S(=O)(=O)c2ccccc2)CC1,nt,-13%,-1.9%,2.9%,nt,-1.0,0%
CC1CN(c2ccc(Cl)cc2[N+](=O)[O-])CCN1S(C)(=O)=O (stereo unspecified),7%,8%,nt,0.9%,-3.9,1.1,7%[15.4 µM]
Cc1ccc(S(=O)(=O)NC2CCCC2)cc1C(N)=O,16%,12%,1.0%,-0.2%,nt,0.8,-32%
OC(CCc1ccncc1)c1ccccc1 (stereo unspecified),nt,?,1.0%,-0.4%,nt,-2.3,4%
CC(C)(C)[C@@H]1C=C(C(=O)NC2CC2)O[C@H](OCc2ccc(CO)cc2)C1,4%,-6%,-0.1%,-1.3%,1.8,0.1,-4%
CN(C)S(=O)(=O)c1ccc(S(=O)(=O)N2CCCC(C(=O)NC3CCCC3)C2)cc1 (stereo unspecified),29%,-7%,nt,0.7%,0.7,-2.6,2%[15.4 µM]
OC(CN1C2=NCCN2c2ccccc21)c1ccc2c(c1)OCO2 (stereo unspecified),18%,-6%,-3.0%,-1.1%,-1.1,-3.6,5%
CCSC1=N/C(=C\c2ccc(C(=O)O)cc2)C(=O)S1,?,-6%,-4.7%,1.9%,0.7,-5.9,0%
Cc1ccnc(NS(=O)(=O)c2ccc(NC(=O)c3ccc(S(=O)(=O)N4CC(C)OC(C)C4)cc3)cc2)n1 (stereo unspecified),-1%,-10%,-0.6%,0.4%,8.3,-0.9,?
O=c1c2ccccc2c(/C=N/NS(=O)(=O)c2ccccc2)c(O)n1-c1ccccn1,7%,-4%,nt,0.9%,?,-4.2,5%[15.4 µM]
CN(C(=O)Nc1ccccc1)C1CCCCC1,20%,16%,0.7%,2.0%,-0.3,-8.0,-4%[15.4 µM]
CCCCNc1cc(C)oc(=O)c1C(C)=O,-8%,6%,-0.6%,-0.3%[38.3 µM],-10,-1.5,1%
Cc1ccc(C(=O)Nc2ccc3c(c2)OCCO3)o1,13%,-2%,-0.5%,3.5%[38.3 µM],2.0,-1.2,-1%
CCO[C@@H]1OC(C(=O)Nc2ccccc2)=C[C@H](c2csc3ccccc23)[C@H]1CCCO,6%,-22%,-0.3%,0.8%,-0.8,-0.2,nt
CC(=O)Nc1ccc(NC(=O)C(C)OC(=O)C23CC4CC(CC(Cl)(C4)C2)C3)cc1 (stereo unspecified),nt,7%,nt,0.0%,nt,2.6,0%
